# NPYLR7 ag = agonists of mosquito NPYLR7 receptor, primary screen, cell-based, Aedes aegypti, calcium fluorescence, mosquito biting behavior; AID 1259423, 2018; Aedes aegypti neuropeptide Y-like receptor 7 (NPYLR7); HEK293T NPYLR7/Galpha15, GCaMP6s calcium fluorescence; 270,000 tested, 0.15% active; activation, % at 10 µM; in the data active = activation above about 40%;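 also: 0% = vehicle and 100% = reference agonist at the receptor; some compounds past the cut are filed as inactive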
# NPYLR7 ag max-min = further read-out of NPYLR7 ag, marked with its call; activation, %; measured here: Max-Min RFU normalised activation; some inactives read as strong as hits;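 span of the calcium signal over five minutes; 0% = vehicle and 100% = native peptide agonist; compound fluorescence can raise it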
# Active calls of the source: *; & = joins results of further samples. This is a subset (hit frequency here may not be typical).
1	CCn1c(C)c(C(=O)CN(C(=O)c2ccc(Cl)c(Cl)c2)C2CCCCC2)c(C)c1C(=O)OC
2	O=C(NCCS(=O)(=O)c1ccccc1)c1cc(Br)ccc1O
3	CCN(CC)C(=O)Oc1ccc2c(ccn2Cc2ccc(Br)cc2)c1-c1ccc(F)c(F)c1
4	OCC1NCC(O)C(O)C1O (stereo not drawn)
5	Cc1ccc(NC(=O)c2c(O)c3cccnc3n(-c3ccccc3)c2=O)cc1C
6	CNC(=O)CN(C)C(=O)c1ccc(OC)c(Br)c1
assay / entry | 1 | 2 | 3 | 4 | 5 | 6
NPYLR7 ag | -9 | 5 | 7 | 0 | -12 | 5
NPYLR7 ag max-min | -3 | 0 | 4 | -27 | -13 | 2

# Four entries already listed, arranged by number of heavy atoms, descending:
3	CCN(CC)C(=O)Oc1ccc2c(ccn2Cc2ccc(Br)cc2)c1-c1ccc(F)c(F)c1
5	Cc1ccc(NC(=O)c2c(O)c3cccnc3n(-c3ccccc3)c2=O)cc1C
6	CNC(=O)CN(C)C(=O)c1ccc(OC)c(Br)c1
4	OCC1NCC(O)C(O)C1O (stereo not drawn)
assay / entry | 3 | 5 | 6 | 4
NPYLR7 ag | 7 | -12 | 5 | 0
NPYLR7 ag max-min | 4 | -13 | 2 | -27

# (further entries)
7	O=C(c1ccccc1OC1CCN(C2C3CC4CC(C3)CC2C4)CC1)N1CCCCC1 (stereo not drawn)
8	O=C(Nc1cc(N2CCNC2=O)ccc1Cl)C1CCCO1 (stereo not drawn)
9	Cc1nc(SCC(=O)N2CCC(C(O)CCc3ccccc3)CC2)n[nH]1 (stereo not drawn)
10	CC(=O)c1cccc(NC(=O)CC2S/C(=N/N=C3CCCCCCC3)NC2=O)c1 (stereo not drawn)
11	CC(C)NS(=O)(=O)c1ccc(NS(=O)(=O)c2ccc(Br)c(C(=O)O)c2)cc1
12	CC1CCCCN1C1CN(C(=O)c2ccc(S(N)(=O)=O)cc2)C1 (stereo not drawn)
assay / entry | 7 | 8 | 9 | 10 | 11 | 12
NPYLR7 ag | -1 | -6 | 5 | 6 | 1 | 2
NPYLR7 ag max-min | -5 | -5 | -4 | 3 | 6 | 2

13	CC(C)c1cccc(-n2ccnc2-c2cnc[nH]2)c1
14	O=C(Nc1cccc(NC(=O)c2ccc(=O)[nH]n2)c1)c1ccncc1
15	O=C(NC(C(=O)N/N=C\c1ccccc1O)c1n[nH]c(=O)c2ccccc12)c1ccccc1 (stereo not drawn)
16	CC1CCC2(CC1)Oc1ccccc1C1CC(c3ccccc3)=NN12 (stereo not drawn)
17	NCCc1nc(NC(Cn2cccn2)c2ccccc2)c2ccccc2n1 (stereo not drawn)
18	O=C(O)c1cc(-c2ccc3c(c2)OCCO3)cc(S(=O)(=O)N2CCCC2)c1
assay / entry | 13 | 14 | 15 | 16 | 17 | 18
NPYLR7 ag | 6 | -1 | -5 | 0 | 39 | 15
NPYLR7 ag max-min | 4 | -2 | -13 | -1 | 21 | 4

19	CCCN(Cc1ccsc1)C(=O)c1cc(C)c(C)c(S(N)(=O)=O)c1
20	COc1ccccc1-n1ncc2c(C(C)C)nnc(SCc3ccccn3)c21
21	CN(C)C(=O)CCC1C(=O)OC(C)(O)C1(C)C (stereo not drawn)
22	CCOC(=O)c1nn(-c2ccccc2)c(=O)c2c(NC(=O)c3ccc(F)cc3)scc12
23	Cc1ccc(-n2c(SCc3ccc(C(=O)Nc4ccc(C)c(C)c4)cc3)nnc2-c2ccco2)cc1
24	Cc1ccc(/C=C2\SC(=S)N(C(C(=O)O)C(C)C)C2=O)cc1 (stereo not drawn)
assay / entry | 19 | 20 | 21 | 22 | 23 | 24
NPYLR7 ag | 10 | -11 | 4 | -6 | 9 | -6
NPYLR7 ag max-min | -1 | -15 | 3 | -6 | 10 | -9

25	COc1cc(-n2ccnc2-c2cc(C)c(C)o2)ccc1NC(C)=O
26	CCn1c(C2CCN(C(=O)c3ccccc3-n3cncn3)CC2)nn(C)c1=O
27	Cc1cnc(NCCN2CCCCCC2)nc1N(C)C
28	Cc1sc2nc(C(C)SC3=NCCS3)[nH]c(=O)c2c1C (stereo not drawn)
29	Cc1cc(C#N)cc(C)c1Oc1nc(Nc2ccc(C#N)cc2)nc(N)c1Br
30	CN(Cc1noc(C2CCCC2)n1)Cc1cn[nH]c1-c1ccc(F)cc1
assay / entry | 25 | 26 | 27 | 28 | 29 | 30
NPYLR7 ag | -1 | 11 | -5 | -24&1 | 5 | 7
NPYLR7 ag max-min | -9 | 8 | -6 | -25&8 | -4 | 4

31	Cc1nc(Nc2ccc(NC(=O)CC(C)C)cc2)cc(OC(C)C)n1
32	CCCn1c(=O)c2c(nc3n2CC(C)CN3c2ccc(CC)cc2)n(C)c1=O (stereo not drawn)
33	CC(=O)C(C(=O)N(C)C)n1cnc2c(nnn2-c2cccc(C)c2)c1=O (stereo not drawn)
34	CC(=O)Nc1ccc(Oc2ncnc3ccsc23)cc1
35	NC(=O)c1ccc(N2CCN(Cc3cccc(-n4cccn4)c3)CC2)nc1
36	CN(C)c1ccc(CN2CCC(C(=O)NC(c3cccnc3)c3ccc4c(c3)OCO4)CC2)cc1 (stereo not drawn)
assay / entry | 31 | 32 | 33 | 34 | 35 | 36
NPYLR7 ag | 10 | 1 | -4 | 9 | -5 | 10
NPYLR7 ag max-min | 2 | 2 | -8 | 8 | -6 | 7

37	NC(=O)CNC(=O)CCCOc1ccc(F)cc1F
38	Nc1nc(NCC2CCC(CNS(=O)(=O)c3cccc4ccccc34)CC2)nc2ccccc12 (stereo not drawn)
39	CN(C(=O)NCCc1cccc(F)c1)C1CCS(=O)(=O)C1 (stereo not drawn)
40	O=C(CCl)N1CCN(C(=O)CN2CCc3sccc3C2c2cccc(F)c2)CC1 (stereo not drawn)
41	CC(=O)Oc1c(-c2ccc(N)cc2)c(CC(C)C)nn1-c1ccc(F)cc1
42	O=C(NCc1cccnc1)NCc1ccccc1OCC1CC1
assay / entry | 37 | 38 | 39 | 40 | 41 | 42
NPYLR7 ag | 2 | -12 | -1 | 2 | -2 | 3
NPYLR7 ag max-min | 7 | -14 | -1 | 16 | 1 | 0

# Brought forward from above: four entries; new compounds follow.
39	CN(C(=O)NCCc1cccc(F)c1)C1CCS(=O)(=O)C1 (stereo not drawn)
40	O=C(CCl)N1CCN(C(=O)CN2CCc3sccc3C2c2cccc(F)c2)CC1 (stereo not drawn)
41	CC(=O)Oc1c(-c2ccc(N)cc2)c(CC(C)C)nn1-c1ccc(F)cc1
42	O=C(NCc1cccnc1)NCc1ccccc1OCC1CC1
43	CCOc1ccc(NC(=O)CSc2nnc(CNC(=O)c3ccc(-c4ccccc4)cc3)n2-c2ccccc2OC)cc1
44	CC1(C(=O)Nc2cccc3ncccc23)CCN1C(=O)c1ccccc1CCc1ccccc1 (stereo not drawn)
45	COCCCN(CC(=O)N1CCc2sccc2C1c1ccc(F)cc1)C(=O)C(C)(C)CCl (stereo not drawn)
46	CCCCc1nc(N2CCN(C(=O)COc3ccccc3)CC2)c2c(-c3ccc4ccccc4c3)noc2n1
47	CC(CCN(C)CC(=O)O)N1CCCC1 (stereo not drawn)
48	CCCn1c(=O)c2c(OCC)c(C)cnc2n(C)c1=O
assay / entry | 39 | 40 | 41 | 42 | 43 | 44 | 45 | 46 | 47 | 48
NPYLR7 ag | -1 | 2 | -2 | 3 | -6 | 5 | 3 | -8 | 0 | -1
NPYLR7 ag max-min | -1 | 16 | 1 | 0 | 0 | 2 | -6 | -11 | -1 | -1

# Overlap with the part before: 2 entries, then new ones.
47	CC(CCN(C)CC(=O)O)N1CCCC1 (stereo not drawn)
48	CCCn1c(=O)c2c(OCC)c(C)cnc2n(C)c1=O
49	COc1cccc2c1OCCCN(C(=O)c1cn[nH]n1)C2
50	CCN(CC)C(=O)CN(C)S(=O)(=O)c1cc(Br)ccc1Br
51	COc1c(C)cc(C(=O)N2CCC(n3c(Cc4ccccc4)nc4ccccc43)CC2)cc1C
52	CCc1ccc(CN(C)C(=O)c2nc3nc(C)cc(C)n3n2)nc1
53	CC(=O)c1c(C(F)(F)F)[nH]ccc1=O
54	CCOC(=O)c1cc(-c2cccc(NC(=O)c3ccc(F)c(F)c3)c2)n(-c2ccccc2F)n1
assay / entry | 47 | 48 | 49 | 50 | 51 | 52 | 53 | 54
NPYLR7 ag | 0 | -1 | -11 | -7 | 28 | 14 | -5 | 30
NPYLR7 ag max-min | -1 | -1 | -17 | -10 | 15 | 19 | -13 | 17

55	O=C(Cn1ccccc1=O)NCc1ccccc1S(=O)(=O)N1CCCCC1
56	C[C@@H]1CN(C(=O)CCC(=O)N2CCc3ccccc32)C[C@H](C)O1
57	O=C(O)c1ccc(Br)cc1-n1cncn1
58	CCN(CC)CCC(=O)c1c(C)nn2c3ccccc3n(C)c12
59	O=C(NCCc1ccccc1F)N1CCN(C(c2ccccc2)c2ccc(Cl)cc2)CC1 (stereo not drawn)
60	Cc1sc(C(=O)NS(C)(=O)=O)cc1-c1ccc(F)cc1
assay / entry | 55 | 56 | 57 | 58 | 59 | 60
NPYLR7 ag | 6 | 27 | -5 | -1 | 17 | 5&10
NPYLR7 ag max-min | 4 | 23 | -7 | -2 | -1 | 2&5

61	COc1ccc(-c2n[nH]c(=S)n2-c2cccc(C)c2)cc1
62	CC12COC3(C(=O)O)CC1CCC32C (stereo not drawn)
63	CCCc1cc(=O)[nH]c(-n2nc(C)cc2NC(=O)c2cc(C(F)(F)F)cc(C(F)(F)F)c2)n1
64	O=C(NCc1ccc(-c2ccccn2)s1)c1cn2c(n1)CNCC2
65	CC(C)N(C)C(=O)c1ccc(CNCc2cc(Br)ccc2F)cc1
66	Nc1nccnc1C(=O)NCCSCc1ccsc1
assay / entry | 61 | 62 | 63 | 64 | 65 | 66
NPYLR7 ag | -5 | -1 | 15 | -1 | 8 | 3
NPYLR7 ag max-min | 1 | -1 | 11 | -5 | 6 | 2

67	CCc1nc2ccc(C(=O)NCCN3CCNC3=O)cn2c1N(CC)Cc1ccc(OC)c(OC)c1
68	c1csc(CNc2ccc3c(c2)OCCO3)c1
69	CCOC(=O)C1=C(C)NC(C)=C(C(=O)OCC)C1c1ccc(OC)cc1OC
70	CNCc1ccc(CN(C)C)cc1
71	COCCS(=O)(=O)N(C)C(C)c1ccc(Cl)cc1 (stereo not drawn)
72	O=C(CC(c1ccccc1)c1ccccc1)N1CCCC1c1nnc2c(C(F)(F)F)cccn12 (stereo not drawn)
assay / entry | 67 | 68 | 69 | 70 | 71 | 72
NPYLR7 ag | -6 | 8 | -17 | 12 | 2 | -8
NPYLR7 ag max-min | -10 | 4 | -22 | 6 | 1 | -16

73	COc1cccc(NC(=O)Cn2nc(Nc3ccc(F)cc3)c(S(=O)(=O)c3ccccc3)c2N)c1
74	O=C(COc1cccc(Cl)c1)N1CCN(c2ccc3nnc(C4CC4)n3n2)CC1
75	S=c1nc(-c2ccc(Cl)cc2)[nH]c2ccccc12
76	Cc1c(Cl)c([N+](=O)[O-])nn1CC(=O)Nc1cc(C(F)(F)F)ccc1Cl
77	CC(C)c1cc(CNC(=O)CSCc2ccccc2Cl)no1
78	Cc1nnc(SCC(=O)NN2C(=O)NC3(CCC(C)CC3)C2=O)n1C1CC1 (stereo not drawn)
assay / entry | 73 | 74 | 75 | 76 | 77 | 78
NPYLR7 ag | -4 | -1 | 3 | -1 | 8 | 2
NPYLR7 ag max-min | -11 | 4 | -2 | -3 | 5 | 1

# Quoted from the listing:
# cpd 74 in NPYLR7 ag max-min shows 4
# cpd 75 in NPYLR7 ag shows 3

# Continued.
79	CCc1nc2c(OCC3CCCCO3)cccn2c1N(C)C(=O)COc1ccccc1 (stereo not drawn)
80	CCc1cn[nH]c1C1CCCN(C(=O)c2cc(-c3ccccc3OC)n[nH]2)C1 (stereo not drawn)
81	COc1ccc(S(=O)(=O)NC(=O)C2(C)CCN2C(=O)C2(c3ccc(Cl)cc3)CCC2)cc1 (stereo not drawn)
82	Cc1ccc(C(=O)N2CCN(S(=O)(=O)c3c(C)c(C)c(C)c(C)c3C)CC2)o1
83	O=C(c1ccc(N2CC(O)C2)nc1)N1CCCN(c2ncccn2)CC1
84	O=c1c2cc(Br)ccc2[nH]c(=S)n1Cc1ccco1
assay / entry | 79 | 80 | 81 | 82 | 83 | 84
NPYLR7 ag | -24 | 1 | 3 | 1 | 3 | 8
NPYLR7 ag max-min | -26 | 2 | 1 | -2 | -1 | 4

85	CC(C)c1cc(=O)n(CC(=O)Nc2ccc(-c3cn4ccsc4n3)cc2)cn1
86	O=C(NC1CCN(c2ccccc2C(=O)N2CCN(c3ccccn3)CC2)CC1)c1ccc([N+](=O)[O-])cc1
87	Cc1cc(C(=O)N(Cc2ccco2)c2nc3ccccc3s2)no1
88	Cc1nn(C)c(Oc2cccc(Cl)c2)c1C(=O)N1C[C@H](O)C[C@H]1C(=O)OCc1ccccc1
89	CCOC(=O)CNC(=O)CSc1ccc2nnc(-c3ccc(Cl)cc3)n2n1
90	COc1ccc(NC(=S)C2N=C(N3CCCCC3)SC2=N)cc1 (stereo not drawn)
91	Cc1ccc(CN(CCc2c[nH]c3ccccc23)C(=O)CNC(C)C)cc1
92	CC(C)C1CN(S(=O)(=O)c2ccccc2)CCC(=O)N1CC1CC1 (stereo not drawn)
93	Cc1cc(F)c(S(=O)(=O)NC(=O)c2cc(C)n(C)n2)cc1F
assay / entry | 85 | 86 | 87 | 88 | 89 | 90 | 91 | 92 | 93
NPYLR7 ag | 1 | 1 | -1 | 4 | 3 | -3 | -8 | -14 | -22
NPYLR7 ag max-min | 0 | 10 | -3 | 7 | 19 | -3 | -15 | -14 | -23

# Screening data (PubChem BioAssay)
